AID923 = qHTS Assay for Allosteric/Competitive Inhibitors of Caspase-1: Spectroscopic Profiling in AFC Spectral Region. compound fluorescence, AFC spectral region (405/520 nm); almost no hit is shown here. Potency, µM (top dose mostly 57.5 µM), without a hit: at the highest dose fluorescence increase, actives largely listed as activators. 1.1% of 75,000 active. AID 923, 2007; active = well fitted activation curve with a large enough effect; inconclusive = small, poorly fitted or top-dose-only effect;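 note: potency is the fitted concentration of half-maximal effect; 0% is about no effect; scaled to a free AFC standard on each plate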
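Titrations up to 57 uM read every 20 sec for 3 min (405/520 nm) with 50 nM caspase 1 and 5 uM Ac-WEHD-AFC, pH 7.5 HEPES buffer. Fluorescence-vs-time intercept gave baseline, scaled against on-plate AFC standard.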
TSHR agonist = qHTS Assay for Agonists of the Thyroid Stimulating Hormone Receptor; AID 926, 2007; Potency, µM (top dose mostly 57.1 µM), inactives show at the top dose activation, usual class: activators; HEK293-CNG-TSHR cells (CNG channel as cAMP sensor), membrane potential dye, cAMP; 0.48% of 73,000 active; Thyrotropin receptor (Homo sapiens), P16473; active = well fitted activation curve of enough size with the parental cells flat; inconclusive = any curve in the parental cells; inactive = parental cells flat and receptor cells flat or falling; note: potency is the fitted concentration of half-maximal effect; % of control where 0% means no effect; weak receptor curves with flat parental cells got no call and are not listed
Target sequence (P16473 whole entry, looked up): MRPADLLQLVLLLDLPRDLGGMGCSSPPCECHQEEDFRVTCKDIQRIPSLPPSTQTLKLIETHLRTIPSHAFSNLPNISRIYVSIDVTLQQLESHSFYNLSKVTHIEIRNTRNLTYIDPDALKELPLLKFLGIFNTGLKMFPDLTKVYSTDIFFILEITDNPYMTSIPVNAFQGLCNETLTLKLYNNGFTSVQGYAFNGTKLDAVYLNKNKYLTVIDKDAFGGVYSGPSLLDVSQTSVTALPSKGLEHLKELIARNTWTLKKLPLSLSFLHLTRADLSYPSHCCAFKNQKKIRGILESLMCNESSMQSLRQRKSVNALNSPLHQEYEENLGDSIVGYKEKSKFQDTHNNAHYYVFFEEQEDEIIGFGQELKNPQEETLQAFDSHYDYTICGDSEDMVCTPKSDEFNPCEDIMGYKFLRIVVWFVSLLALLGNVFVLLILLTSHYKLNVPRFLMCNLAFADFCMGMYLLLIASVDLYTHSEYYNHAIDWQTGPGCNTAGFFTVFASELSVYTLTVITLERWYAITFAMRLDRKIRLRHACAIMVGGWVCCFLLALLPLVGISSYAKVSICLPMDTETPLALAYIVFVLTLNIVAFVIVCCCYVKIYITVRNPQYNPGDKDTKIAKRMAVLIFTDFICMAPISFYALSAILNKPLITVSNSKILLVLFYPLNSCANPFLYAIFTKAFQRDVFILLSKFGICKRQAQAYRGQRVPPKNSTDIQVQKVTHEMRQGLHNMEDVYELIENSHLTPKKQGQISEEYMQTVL
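cAMP rise detected as CNG-channel membrane depolarization by fluorescent dye (emission 590 nm), 30 min after compound, following 60 min dye loading containing 100 uM RO 20-1724 at room temperature. Cells: TSHR/CNG HEK 293, with parental CNG HEK 293 as control.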
Resorufin fluor = qHTS Assay for Spectroscopic Profiling in Resorufin Spectral Region. Compound fluorescence, resorufin region 547/598 nm, buffer; hits give high values. 0.04% of 59,000 active. max dye-equivalent concentration, M; active = above 10 nM dye equivalent; inconclusive = 1 to 10 nM; inactive = 1 nM or less; a few of its hits are not listed in these tables; note: highest value over a series up to 38 µM
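Compounds in 100 mM Tris, pH 8.0, incubated 15 min at room temperature, then fluorescence read at 547 nm excitation/598 nm emission. Signal converted to dye-equivalent concentration via an on-plate six-point resorufin standard curve, per compound concentration.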
A647 fluor = qHTS Assay for Spectroscopic Profiling in A647 Spectral Region; Compound fluorescence, A647 channel (570/671 nm), Tris buffer; max dye-equivalent concentration, M; AID 592, 2007; 59,000 tested, under 10 active; active means above 1 µM dye equivalent; inconclusive means 0.1 to 1 µM; inactive means 0.1 µM or less;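 note: values scaled relative to a standard on each plate; highest value over a series up to 38 µM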
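Spectral profiling of library compounds in pH 8.0 Tris: 15 min room-temperature incubation, single ex/em pair (570/671 nm), response normalized to Alexa 647 equivalents.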
A488 autofl = qHTS Assay for Spectroscopic Profiling in A488 Spectral Region; compound autofluorescence, A488 spectral region, dye equivalency; hits give high values; max dye equivalency, M; 0.1% of 59,000 active; active = above 10 nM dye equivalent; inconclusive = 1 to 10 nM; inactive = 1 nM or less; about half of its hits are not listed in these tables;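 note: highest value over a series up to 38 µM; compound alone in buffer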
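Compounds pin-transferred into 100 mM Tris buffer, pH 8.0, incubated 15 min at room temperature, then imaged with 480 nm excitation/540 nm emission filters. Fluorescence converted to Alexa 488 dye-equivalent concentration via an on-plate six-point A488 standard curve.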
Active calls of the source: *; i = inactive; ? = inconclusive; . = no result given; & = joins results of further samples; [ ] = remark or other dose.

SMILES | AID923 | TSHR agonist | Resorufin fluor | A647 fluor | A488 autofl
O=C(COC(=O)c1cccc(S(=O)(=O)N2CCN(c3ccccc3)CC2)c1)NCc1ccco1 | 3.0% | -2% | i | 1.9e-08 | i
CCOC(=O)N1CCN(S(=O)(=O)c2ccc(OCC)c3ccccc23)CC1 | -0.8% | ? | i | 2.5e-09 | i
CCCC12CN3CC(CCC)(CN(C1)C3C(O)C(O)C(O)CO)C2=O (stereo not drawn) | 1.6% | 7% | . | . | .
CCOc1ccccc1Nc1ccc(N)cc1S(=O)(=O)O | 1.8%[11.5 µM] | 7%[11.4 µM] | i | 1e-09 | i
O=C(NC1CCCCC1)N1CCc2ccccc21 | -1.3% | 1% | i | 3.9e-09 | i
Oc1c(-c2cc(-c3ccco3)[nH]n2)ccc2ccccc12 | -0.5% | -14% | i | 2.9e-08 | i
CCCN(Cc1cc2cc(C)ccc2[nH]c1=O)S(C)(=O)=O | -1.3% | 5µM* | i | 5.7e-09 | i
O=C1CCCCCN1CP(=O)(O)CN1CCOCC1 | 2.9% | 0% | i | 1.6e-08 | i
O=C(Nc1ccccc1)N[C@H]1C[C@H](C(=O)O)Nc2cc(Cl)cc(Cl)c21 | -0.4% | 10% | . | . | .
CCOc1ccc(C(=O)N(CN2CCCC2=O)c2ccccc2)cc1 | 1.6% | 2% | i | 2.8e-08 | i
Clc1ccccc1OCc1nnc(-c2ccccc2Br)o1 | 3.2% | 8% | i | 2.3e-08 | i
O=C(c1cnccn1)N1CCC2(CC1)CCN(c1ccccn1)CC2 | 2.0% | 8% | i | 2.7e-09 | i
CCOC(=O)COC(=O)c1ccc(O)cc1 | 2.6% | 7% | . | . | .
Cc1nc(Nc2ccc3c(c2)OCCO3)c2oc3ccccc3c2n1 | 0.2% | . | i | 2.3e-08 | i
Cc1cccc(-c2nnc(-c3ccccc3)o2)c1 | 0.9% | ? | . | . | .
Cc1c(Cl)cccc1Nc1nc(N)nc(CSCCO)n1 | 0.2% | 3% | i | 1.6e-08 | i
c1ccc2sc(SSc3nc4ccccc4s3)nc2c1 | 1.2% | 2% | . | . | .
O=C(c1cnn2c(C(F)F)cc(-c3ccccc3)nc12)N1CCOCC1 | 3.6% | ? | i | 1e-09 | i
O=c1nc(-c2ccccc2)c2ccccc2[nH]1 | 2.9% | ? | i | 1.8e-09 | i
CCOc1ccc(Nc2nc(NCCN3CCOCC3)nc(OC)n2)cc1 | -1.3% | -2% | i | 2.8e-08 | i

Part of the list above in order of count of non-hydrogen atoms, rising:
SMILES | AID923 | TSHR agonist | Resorufin fluor | A647 fluor | A488 autofl
CCOC(=O)COC(=O)c1ccc(O)cc1 | 2.6% | 7% | . | . | .
Cc1cccc(-c2nnc(-c3ccccc3)o2)c1 | 0.9% | ? | . | . | .
c1ccc2sc(SSc3nc4ccccc4s3)nc2c1 | 1.2% | 2% | . | . | .
O=C(c1cnccn1)N1CCC2(CC1)CCN(c1ccccn1)CC2 | 2.0% | 8% | i | 2.7e-09 | i
O=C(c1cnn2c(C(F)F)cc(-c3ccccc3)nc12)N1CCOCC1 | 3.6% | ? | i | 1e-09 | i
CCOc1ccc(Nc2nc(NCCN3CCOCC3)nc(OC)n2)cc1 | -1.3% | -2% | i | 2.8e-08 | i

Other compounds:
SMILES | AID923 | TSHR agonist | Resorufin fluor | A647 fluor | A488 autofl
Cc1ccc(CN2CC34C=CC(O3)C(C(=O)NCc3ccco3)C4C2=O)cc1 (stereo not drawn) | 0.5% | 2%[11.4 µM] | i | 3.8e-08 | i
CC(C)[C@@H](OCc1ccccc1)[C@H](C)/C=N\OC[C@@H](C)[C@H](OCc1ccccc1)C(C)C | 1.3%[11.5 µM] | 2%[11.4 µM] | . | . | .
COc1cc(C(=O)N2CCCC(c3nc(-c4cccs4)no3)C2)cc(OC)c1OC (stereo not drawn) | -0.6% | 7% | i | 2.4e-08 | i
CC1CN(S(=O)(=O)c2ccc(Cl)c(S(=O)(=O)N3CC(C)OC(C)C3)c2)CC(C)O1 (stereo not drawn) | 1.0% | 6% | . | . | .
Cc1noc(C)c1CSc1nnc2c(C)cc3ccccc3n12 | 3.2% | 9% | i | 4.3e-08 | i
Cn1ccnc1SCc1cn2ccccc2n1 | -0.3% | 2% | i | 1e-09 | i
O=C(Cl)c1ccc([N+](=O)[O-])cc1 | -3.7% | -2% | . | . | .
O=C(Nc1cccnc1)C(Cc1ccccc1)n1cccc1 (stereo not drawn) | -3.5% | 3% | . | . | .
c1ccc2c(c1)CCCc1cc(NCCN3CCOCC3)nnc1-2 | -1.6%[25.7 µM] | -13%[25.6 µM] | i | 1.5e-09 | i
CCS(=O)(=O)N1CCN(C(=O)CCC2CCCC2)CC1 | -1.4% | -10% | i | 5.9e-09 | i
COc1ccc(-n2c3c(cc(C(=O)Nc4ccc5c(c4)C(=O)NC5=O)c2=O)C(=O)CCC3)cc1 | 1.0% | -1% | . | . | .
CCOC(=O)NC(=O)CSc1nnnn1-c1ccccc1 | -2.7% | 0% | i | 2.2e-09 | i
O=C(NCc1cccs1)C1CCN(S(=O)(=O)N2CCCC2)CC1 | 0.5% | 3% | i | 1e-09 | i
Cc1cc(Cl)ccc1OCCCC(=O)N1CCOCC1 | 1.8% | 5% | i | 1.3e-08 | i
O=C(COc1ccccc1)NCCn1ccc2ccccc21 | -1.1% | 12% | i | 3.4e-08 | i
CCN(CC)C(=O)CSC1=C(C#N)C(c2cccs2)C=C(C)N1 (stereo not drawn) | . | . | i | 7.9e-08 | i
COc1ccc(CCNC(=O)C2CCN(Cc3nc(-c4ccccc4F)oc3C)CC2)cc1OC | 0.0% | 3% | i | 5.4e-08 | i
c1ccc(-c2cnc(CSc3nnc4ccccn34)o2)cc1 | -1.3% | -6% | i | 4.4e-09 | i
Cc1c(C(=O)Nc2ccc(Cl)cn2)oc2ccccc12 | 0.5% | 22% | i | 1e-09 | i
Cc1ccc(-c2nc(C(=O)NC3CCCCCC3)no2)cc1 | -3.8% | ? | . | . | .

Entries of single compounds as entered above. Order of screens: AID923	TSHR agonist	Resorufin fluor	A647 fluor	A488 autofl
`O=C(NCc1cccs1)C1CCN(S(=O)(=O)N2CCCC2)CC1` is listed as 0.5%	3%	i	1e-09	i
`Cc1ccc(-c2nc(C(=O)NC3CCCCCC3)no2)cc1` is listed as -3.8%	?	.	.	.

The list continues.
SMILES | AID923 | TSHR agonist | Resorufin fluor | A647 fluor | A488 autofl
O=C(NC1CCCC1)c1cccc(S(=O)(=O)N2CCCCC2)c1 | -1.7% | -1% | i | 7.5e-09 | i
COc1cccc(C(=O)N2CCN(CCCc3ccccc3)CC2)c1OC | -2.0% | 9% | i | 2.2e-09 | i
CCN1C(=O)[C@@H]2[C@H]3C(=CC[C@H]2C1=O)C(=O)[C@H]1OC1[C@H]3O (stereo partly drawn) | 6.9%[11.5 µM] | -8%[11.4 µM] | . | . | .
O=C(O)c1cc2nc(-c3ccccc3)cc(C(F)(F)F)n2n1 | 2.9% | -4% | i | 3.4e-08 | i
COc1ccc(Nc2nc(N)nc(CN3CCOCC3)n2)cc1 | -0.2% | -25% | i | 1e-09 | i
S=C(NC1CCCCC1)N1CCC([C@H]2C=NC=N2)CC1 | 1.0%[25.7 µM] | 1%[25.6 µM] | i | 1e-09 | i
Cc1nnc(SCCC(=O)Nc2nc(-c3ccccc3)ns2)s1 | 1.0% | 1% | i | 4.1e-08 | i
Cc1cc(O)c(C(C)C)cc1NC(=O)Nc1cccc2ccccc12 | 3.3%[11.5 µM] | -2%[11.4 µM] | i | 1e-09 | i
COc1ccc2c(c1)c(=O)oc1cc(OCC(=O)NC3CC3)ccc12 | 0.6% | 6% | i | 5.3e-09 | i
O=C1CC(C(=O)Nc2nccs2)C(c2ccccc2)O1 (stereo not drawn) | 2.6% | 16% | . | . | .
COCCN(C(C)=O)c1nnc(-c2ccccn2)s1 | 1.5% | -2% | i | 1e-09 | i
CCN1C(=O)CSc2ccc(C(=O)NCc3ccco3)cc21 | 0.0% | 16% | i | 1.5e-08 | i
CC(C(=O)N1CCOCC1)N1C(=O)c2ccccc2C1=O (stereo not drawn) | . | . | i | 2.5e-08 | i
Cc1ccc(OCCN2CCN(C(=O)CCC(=O)Nc3nnc(C(C)C)s3)CC2)cc1 | -0.5% | 7% | i | 1.7e-08 | i
CCCCNC(=O)C1CC(=O)N(CCC(C)C)C1 (stereo not drawn) | 0.7% | 1% | i | 1e-09 | i
CCCC(=O)N(c1ccc(OC)cc1)C1C=CS(=O)(=O)C1 (stereo not drawn) | 0.8% | -7%[11.4 µM] | i | 1e-09 | i
CCOC(=O)C(C)n1cnc2c(cnn2-c2ccc(Cl)cc2)c1=O (stereo not drawn) | -0.8% | 23% | i | 1e-09 | i
Cc1nn(Cc2ccccc2)c(C)c1CCC(=O)O | -0.7% | 3% | i | 3.2e-08 | i
COc1ccc(C2CC(=O)N3CN(c4ccc(C)c(Cl)c4)CSC3=C2C#N)cc1 (stereo not drawn) | 0.8% | 10% | . | . | .
NS(=O)(=O)c1ccc(NC(=O)CCc2ccccc2)cc1 | -2.4% | ? | i | 2e-09 | i
COc1ccccc1C1=NOC(Cn2c(=O)c3c(ncn3C)n(C)c2=O)C1 (stereo not drawn) | -0.4% | -1% | i | 1e-09 | i
CCn1c(Cc2ccccc2)nnc1SCC(=O)NC(C)(C)C | -3.0% | 2% | i | 1e-09 | i
CCOC(=O)C1CCN(c2cc(=O)n(-c3ccccc3Cl)c(=O)[nH]2)CC1 | 0.4% | ? | i | 3.3e-09 | i
Cc1cc(NC(=O)CSc2nc(-c3cccnc3)ccc2C#N)no1 | . | . | i | 1e-09 | i
COCCOC(=O)C1=C(C)NC(C)=C(C(=O)OC(C)C)[C@@H]1c1cccc([N+](=O)[O-])c1 | -3.0% | 5% | i | 1.1e-08 | i
Cn1c(C2CCCN2C(=O)OC(C)(C)C)n[nH]c1=S (stereo not drawn) | 2.3% | -3% | i | 4.1e-08 | i
c1cncc(-c2nnc(SCCSc3nnc(-c4cccnc4)o3)o2)c1 | 1.3% | 3% | i | 5.8e-08 | i
O=C(O)c1ccc(CSc2nnnn2C2CCCCC2)cc1 | 0.5% | 4% | i | 3.5e-08 | i
Cc1cc(C)nc(SCC(=O)NC2=NC(=O)C(C)S2)n1 (stereo not drawn) | -1.8% | -3% | i | 6.1e-08 | i
COc1cc(NC(=O)c2ccc(Br)o2)c(C(=O)O)cc1OC | -0.3% | 17% | i | 3.4e-08 | i
Cc1cccc(C)c1NC(=O)C1(N(Cc2ccco2)C(=O)CC2NC(=O)NC2=O)CCCCC1 (stereo not drawn) | -1.6% | ? | i | 3.3e-09 | i
CC1CCCc2sc3nc(NCc4ccco4)n4ncnc4c3c21 (stereo not drawn) | 0.0% | . | i | 6.8e-09 | i
O=C(N1CCCCCC1)N1CCN(S(=O)(=O)N2CCOCC2)CC1 | -0.8% | -1% | i | 3.7e-09 | i
CCOC(=O)N1CCC(NC(=O)c2cnn3cccnc23)CC1 | 2.3% | 6% | i | 3.1e-08 | i
COc1ccc(N(CC(=O)Nc2ccc3c(c2)OCO3)S(=O)(=O)c2c(C)nn(C)c2C)cc1 | 2.0% | -4% | . | . | .
O=c1[nH]c2cc3c(cc2cc1C(c1nnnn1Cc1ccccc1)N1CCCc2ccccc21)OCO3 (stereo not drawn) | 5.5% | 10% | i | 3e-08 | i
CC(=O)Nc1ccc(C(=O)CS(=O)(=O)c2ccc(C)cc2)cc1 | 0.3% | 2% | i | 9.9e-09 | i
COc1ccc(OC)c(NC(=O)CCN2CC(C)OC(C)C2)c1 (stereo not drawn) | 1.7% | 3% | . | . | .
O=S(=O)(O)C1CCNCC1 | -1.5%&-2.1% | 1% | i | 1.3e-09 | i
CCC(=O)N1C(=O)CCN(C(C)=O)c2ccccc21 | -2.1% | 3% | i | 1.5e-09 | i

These rows are one share of the data; rates above refer to the full screens.
